# GLA inh pH 4.5 – qHTS Assay for Inhibitors of Human alpha-Galactosidase at pH 4.5 | activity change, negative = inhibition, % at 105 µM | AID 1467, 2008 | Alpha-galactosidase A (Homo sapiens), P06280 | 230,000 tested, under 10 active | purified enzyme, 4-MU-alpha-Gal fluorescence, pH 4.5; inconclusive = small, poorly fitted or top-dose-only inhibition, or a rising curve; inactive = flat fitted curve, though single readings scatter; no compound was filed as active;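 further: 0% = full activity with enzyme and -100% = basal without enzyme; dose as in the result columns while the protocol names 77 µM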
# Rango dissoc inh – qHTS Assay for Inhibitors of RanGTP induced Rango (Ran-regulated importin-beta cargo) - Importin beta complex dissociation | Potency, µM (highest dose often 46.1 µM), for the others: top-dose activity change, negative = inhibition | 340,000 compounds, 0.071% hits | Biochemical FRET Rango-importin beta, RanGTP-induced dissociation | Snurportin-1 (Homo sapiens) + GTP-binding nuclear protein Ran (Homo sapiens) + Importin …; active means falling FRET ratio curve, often poorly fitted, with flat reads before Ran was added; inconclusive means other falling curves, or compound fluorescence or quenching; inactive means flat or rising ratio curve;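 further: potency means the concentration at half of the fitted maximal effect; % of control where 0% means no effect; nearly all actives have a fitted effect of over 45% in size; -100% = wells without RanGTP and RCC1; the record marks most hits as doubtful in a second field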
#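 Two FRET readings bracket the reaction: one 5 min after compound meets Rango–importin beta, another 45 min after RanGTP-RCC1 (0.6 uM Ran, 0.2 uM RCC1, 2 mM GTP) is added. Only the second defines inhibition.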
# miR-21 reporter – qHTS Assay for Modulators of miRNAs and/orActivators of miR-21. HeLa miR-21 FLuc reporter, luciferase, 48 h. Potency, µM (series often up to 38.3 µM), for inactives: at the top dose reporter change, positive = more light. 340,000 tested, under 10 active; active = well fitted rising curve with a large enough effect; inconclusive = small, poorly fitted or top-dose-only effect; inactive = no such curve, though single readings can be large or run the other way;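 further: % of control where 0% means no effect; miR-21 action dims this reporter so a rising signal means less miR-21 action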
#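 HeLa cells stably expressing CMV-driven firefly luciferase with a downstream miR-21 binding sequence, endogenously expressing miR-21, were treated with titrations (up to about 40uM final) for 48 hours at 37 degree Celsius. Luciferase luminescence was read after lysis.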
# Rango complex inh – qHTS Assay for Inhibitors of Rango (Ran-regulated importin-beta cargo) - Importin beta complex formation | Potency, µM (top dose mostly 92.2 µM), inactives show top-dose inhibition of complex formation | Importin subunit beta-1 (Homo sapiens), Q14974 | AID 540263, 2011 | Rango CFP/YFP FRET sensor + importin beta, 45 min | 340,000 compounds, 0.031% hits; active = rising FRET ratio curve, often small or poorly fitted; inconclusive = mostly compound fluorescence or quenching in the first reads; inactive = flat curves in all reads;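 further: potency means the concentration at half of the fitted maximal effect; 0% = DMSO wells and 100% = buffer wells lacking importin beta; nearly all actives have a fitted effect of over 15% in size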
# Target sequence (Q14974 whole entry, looked up): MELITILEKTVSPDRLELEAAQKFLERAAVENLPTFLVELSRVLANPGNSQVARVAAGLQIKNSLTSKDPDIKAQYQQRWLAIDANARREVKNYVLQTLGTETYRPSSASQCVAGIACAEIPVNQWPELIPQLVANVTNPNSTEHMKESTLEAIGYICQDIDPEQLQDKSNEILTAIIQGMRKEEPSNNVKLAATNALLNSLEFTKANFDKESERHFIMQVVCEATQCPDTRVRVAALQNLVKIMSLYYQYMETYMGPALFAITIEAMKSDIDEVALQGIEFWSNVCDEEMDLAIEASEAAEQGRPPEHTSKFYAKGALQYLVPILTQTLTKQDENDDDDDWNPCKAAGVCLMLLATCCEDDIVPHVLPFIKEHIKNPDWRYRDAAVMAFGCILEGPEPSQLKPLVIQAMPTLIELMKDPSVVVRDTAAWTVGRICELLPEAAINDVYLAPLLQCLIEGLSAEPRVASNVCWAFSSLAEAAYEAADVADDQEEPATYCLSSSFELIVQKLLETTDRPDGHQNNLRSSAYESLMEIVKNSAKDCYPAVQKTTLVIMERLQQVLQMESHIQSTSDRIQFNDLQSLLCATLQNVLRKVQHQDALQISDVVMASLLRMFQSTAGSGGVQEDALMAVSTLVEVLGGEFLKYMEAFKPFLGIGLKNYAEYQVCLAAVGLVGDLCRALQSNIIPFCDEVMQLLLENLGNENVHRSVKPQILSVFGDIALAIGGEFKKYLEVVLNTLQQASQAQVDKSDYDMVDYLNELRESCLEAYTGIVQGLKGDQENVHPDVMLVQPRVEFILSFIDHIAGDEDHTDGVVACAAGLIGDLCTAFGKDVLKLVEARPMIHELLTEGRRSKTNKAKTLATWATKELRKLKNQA
#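 FRET biosensor (snurportin 1 IBB flanked by EYFP and cerulean), 50 nM, with compound 5 min, then 0.125 microM importin beta in PBS, 1 mM DTT, 0.02% Tween-20, 0.1% BSA. CFP/YFP ratio read after 45 min at room temperature; pre-read flags interference.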
# Active calls of the source: *; ? = inconclusive; nt = no result given. These rows are one share of the data, so the mix of outcomes need not match the whole.
miR-21 reporter,GLA inh pH 4.5,Rango complex inh,Rango dissoc inh,compound
-33%,4,3.8%,-11%,Cc1cccc(NC(=O)NCc2ccc3[nH]c(C)cc3c2)c1
nt,nt,-2.4%,-2%,O=C(c1cccc(S(=O)(=O)Nc2ccccc2Cl)c1)N1CCCCCC1
-5%,-4,-0.2%,5%,Cc1cc(C)n(C2CCCCC2OC(=O)c2ccccc2)n1 (stereo unspecified)
nt,nt,0.1%,-5%,Cc1ccc(C)c(N2CCN(C(=O)CCc3nc(-c4cccc(F)c4)no3)CC2)c1
-16%,2,0.4%,0%,COc1ccc(-c2nn(-c3ccccc3)cc2/C=N/NC(=O)c2ccc(Br)o2)cc1
-4%,1,-7.4%,1%,CCCNC(=O)NCCc1c(C)[nH]c2ccccc12
0%,nt,-2.9%,11%,Cc1c(NC(=O)Nc2cccc(F)c2)c(=O)n(-c2ccccc2)n1C
17%,16,?,-12%,Nc1nc(N)c2c(ccc3nccc32)[nH]1
nt,nt,0.5%,4%,CC(C)C(=O)N[C@@H]1c2ccccc2CC[C@@H]1O
0%,-1,1.9%,8%,NC(=S)NC(=O)/C=C/c1ccccc1
nt,nt,0.9%,-6%,Cc1cccc(C(=O)O)c1[N+](=O)[O-]
-9%,-13,?,?,O=C1/C(=C/c2ccco2)Oc2c1ccc(O)c2CN1CCCCC1
0%,4,2.8%,7%,O=C(Nc1ccc(F)cc1)C1CC(=O)n2ncnc2N1 (stereo unspecified)
nt,nt,0.1%,-5%,C=CCN(c1ccccc1OC)S(=O)(=O)c1cccc(C(=O)OC2CCOC2=O)c1 (stereo unspecified)
-7%,-16,0.5%,8%,C=CCOc1ccc(C2NC(=O)NC(C)=C2C(=O)OC)cc1 (stereo unspecified)
-2%,1,6.8%,-11%,Cn1cc(S(=O)(=O)CC(=O)N2CCCc3ccccc32)c2ccccc21
1%,6,0.6%,8%,COC(=O)CC1=NN(c2ccc(OC)cc2)C(=O)C1
1%,nt,4.4%,11%,CCN(CC)C1CC(=O)N(c2cccc(Cl)c2)C1=O (stereo unspecified)
10%,-5,-1.6%,25%,O=C(C(Cc1ccccc1)n1cccc1)N1CCN(Cc2ccccc2)CC1 (stereo unspecified)
-10%,nt,-1.1%,-33%,CC1CCCN(S(=O)(=O)c2ccc3oc(=O)ccc3c2)C1 (stereo unspecified)

# Filtered by structure, the entries above containing nitrogen in an aromatic ring (10)
miR-21 reporter,GLA inh pH 4.5,Rango complex inh,Rango dissoc inh,compound
-33%,4,3.8%,-11%,Cc1cccc(NC(=O)NCc2ccc3[nH]c(C)cc3c2)c1
-5%,-4,-0.2%,5%,Cc1cc(C)n(C2CCCCC2OC(=O)c2ccccc2)n1 (stereo unspecified)
nt,nt,0.1%,-5%,Cc1ccc(C)c(N2CCN(C(=O)CCc3nc(-c4cccc(F)c4)no3)CC2)c1
-16%,2,0.4%,0%,COc1ccc(-c2nn(-c3ccccc3)cc2/C=N/NC(=O)c2ccc(Br)o2)cc1
-4%,1,-7.4%,1%,CCCNC(=O)NCCc1c(C)[nH]c2ccccc12
0%,nt,-2.9%,11%,Cc1c(NC(=O)Nc2cccc(F)c2)c(=O)n(-c2ccccc2)n1C
17%,16,?,-12%,Nc1nc(N)c2c(ccc3nccc32)[nH]1
0%,4,2.8%,7%,O=C(Nc1ccc(F)cc1)C1CC(=O)n2ncnc2N1 (stereo unspecified)
-2%,1,6.8%,-11%,Cn1cc(S(=O)(=O)CC(=O)N2CCCc3ccccc32)c2ccccc21
10%,-5,-1.6%,25%,O=C(C(Cc1ccccc1)n1cccc1)N1CCN(Cc2ccccc2)CC1 (stereo unspecified)

# The listing continues.
miR-21 reporter,GLA inh pH 4.5,Rango complex inh,Rango dissoc inh,compound
0%,-15,-0.6%,-1%,Cc1cc(C)cc(-c2nnc(SCC(=O)N3CCN(C(=O)c4ccco4)CC3)o2)c1
-38%,-29,-0.9%,-1%,NNC(=O)c1cccc(COc2ccc(Br)cc2)c1
-7%,-10,4.5%,-13%,COc1ccc(C(=O)N2CCC(=O)N(C(CO)Cc3ccccc3)CC2)cc1 (stereo unspecified)
8%,nt,-2.8%,8%,CCCCN(C)C(=O)C1CCN(Cc2cccc(OCc3ccccc3)c2)CC1
3%,5,2.1%,-9%,COC(=O)c1sccc1NC(=O)/C=C/C(=O)O
-41%,0,-2.1%,-9%,COc1ccccc1OCC(=O)O/N=C(\N)c1ccccn1
-10%,nt,-2.9%,-14%,COc1cc2c(cc1OC)CN(C(=O)/C=C/c1ccc(F)cc1)CC2
-1%,-7,?,?,CCOC(=O)C1=C(c2ccccc2)N=c2s/c(=C\c3cc(OC)c(OC)c(OC)c3)c(=O)n2C1c1cccs1 (stereo unspecified)
-12%,6,4.9%,-3%,COC(=O)CNC(=O)CN1C(=O)N(c2ccccc2)C(N(O)C(=O)Nc2ccccc2)C1(C)C (stereo unspecified)
nt,nt,3.3%,0%,CCN(CC(=O)Nc1c(F)cccc1F)C(=O)CCNC(=O)c1ccco1
-4%,-7,3.8%,28%,CC1(C)CCN(Cc2ccccc2)C1CC#N (stereo unspecified)
13%,-10,4.5%,-2%,Nc1nc(N)c(Cc2ccc(Cl)cc2Cl)c(N)n1
-18%,nt,-1.2%,14%,CC(NC(=O)c1cc2ccccc2oc1=O)c1ccc(O)cc1 (stereo unspecified)
0%,4,?,-21%,COC(=O)c1[nH]c2ccc(F)cc2c1NC(=O)CCN1CCN(Cc2ccc3c(c2)OCO3)CC1
-6%,7,-5.0%,1%,CCOc1ccc(CCNC(=O)C(C)n2nc(C)n3c(cc4occc43)c2=O)cc1OCC (stereo unspecified)
0%,1,-0.8%,8%,Cc1ccnc(NC(=O)CCC(=O)N(CC(=O)NC2CCCCC2)Cc2cccs2)c1
nt,nt,-0.3%,-4%,Cc1ccc(Nc2cccc(C(F)(F)F)c2)nn1
-12%,nt,0.3%,6%,Cc1ccc2c(CN3CC(C)CC(C)C3)cc(=O)oc2c1C (stereo unspecified)
3%,-10,-2.1%,1%,O=c1[nH]n(-c2ccc(Cl)cc2)c(=O)c(Cl)c1Cl
-8%,-1,-1.0%,1%,CCOc1ccc(-n2c(SCC(=O)Nc3nccs3)nnc2-c2ccoc2C)cc1
14%,nt,-2.5%,-7%,CSc1ccc(S(=O)(=O)N2CCC(C(=O)Nc3ccccc3C(F)(F)F)CC2)cc1
-11%,nt,-0.3%,9%,O=C(Cc1ccc(Br)cc1)N1CCOCC1
-2%,0,0.2%,11%,O=C(CN1CCOCC1)Nc1scc2c1c(=O)oc1ccccc12
1%,0,3.4%,2%,O=C(COc1ccc(Cl)cc1)NNC(=O)C(=O)N1CCCCC1
-4%,1,-2.2%,10%,CN(C)c1ccc(/C=N/Nc2cc(N3CCOCC3)nc(N3CCOCC3)n2)cc1
-33%,5,-5.5%,-13%,CC1CC(C)CN(C(=O)CSc2nc3ccsc3c(=O)n2Cc2ccccn2)C1 (stereo unspecified)
1%,?,-0.4%,0%,Cc1nc2ccccc2n1C1CCN(CC(=O)NCc2ccc(F)cc2)CC1
-3%,2,-0.3%,1%,CNc1nc(-c2ccc3c(c2)CCN3C(=O)CC(C)(C)C)c(C)s1
-7%,nt,4.7%,-11%,CC1(C)C(=O)OC(/C=C\c2ccccc2)C(C)(C)C1=O (stereo unspecified)
17%,-11,?,?,Cc1ccc2[nH]c3c(c2c1)CN(C(=O)CN1CCN(c2cccc(C)c2C)CC1)CC3
-47%,-9,-3.8%,4%,O=C(CCc1ccccc1)Nc1ccc2ccccc2n1
-14%,0,-0.8%,-15%,O=C(N/N=C/C=C/c1ccccc1[N+](=O)[O-])c1ccncc1
-5%,-4,-1.9%,3%,COc1ccc(N(CC(=O)Nc2ccc3c(c2)OCO3)S(=O)(=O)c2c(C)nn(C)c2C)cc1
-3%,-2,-2.0%,-12%,O=C(O)CCNC(=O)C12CC3CC(CC(C3)C1)C2
-2%,6,-0.1%,1%,NC(=O)COC(=O)CCSc1ccc(Cl)cc1
-12%,8,-0.4%,-6%,O=c1[nH]c2cc3c(cc2cc1C(c1nnnn1Cc1ccccc1)N1CCCc2ccccc21)OCO3 (stereo unspecified)
-1%,-7,-3.2%,-10%,Cn1cc(CN2CCCC(C(=O)c3cccs3)C2)c(-c2cccc(Cl)c2)n1 (stereo unspecified)
-4%,-3,0.9%,15%,CCOC(=O)N1CCC(NC(=O)c2cnn3cccnc23)CC1
-5%,-25,4.6%,-15%,CSc1ccccc1C(=O)NCCCOC(C)C
-45%,-10,1.2%,-9%,CC(/C=N/NC(=O)c1cnccn1)=C\c1ccco1
4%,-5,-4.1%,0%,Cc1cccc(C)c1NC(=O)C1(N(Cc2ccco2)C(=O)CC2NC(=O)NC2=O)CCCCC1 (stereo unspecified)
-64%,7,-1.6%,7%,COCCCNC(=O)COc1ccc(Br)cc1Cl
-7%,6,2.8%,0%,O=C(N1CCCCCC1)N1CCN(S(=O)(=O)N2CCOCC2)CC1
-55%,-11,1.4%,30%,COc1ccc(CCNC(=O)c2ccc3c(c2)OCCO3)cc1
-4%,1,?,?,O=C/C(=C\Nc1ccc(Cl)cn1)c1nc2ccccc2o1
nt,nt,3.7%,-1%,CCN1C(=O)[C@@H]2[C@@H](c3ccc(-c4ccc(OC)cc4)cc3)N3CCC[C@@]3(C(=O)OC)[C@@H]2C1=O
-54%,1,1.5%,3%,CC1CCCc2sc3nc(NCc4ccco4)n4ncnc4c3c21 (stereo unspecified)
-13%,nt,-0.1%,-2%,Cc1ccnc(NC(=O)CCC(=O)N(CC(=O)NC(C)(C)C)c2ccc3c(c2)OCO3)c1
1%,-8,-0.1%,13%,CC(C)C(NC(=O)c1ccccc1)C(=O)NCc1ccccn1 (stereo unspecified)
nt,nt,2.8%,2%,Cc1cccc(OCC(=O)N(C)CC(=O)Nc2cccc(F)c2)c1C
nt,nt,0.9%,-11%,CC(C)N(C(=O)COC(=O)c1cccnc1Cl)c1ccccc1
-4%,nt,-0.4%,2%,CN1CCCN(Cc2ccccc2Br)CC1
nt,nt,-0.1%,4%,COc1ccccc1N1CCN(c2ccc(S(=O)(=O)N3CCN(C)CC3)cn2)CC1
-2%,3,0.3%,12%,CCC(=O)N1C(=O)CCN(C(C)=O)c2ccccc21
25%,-14,0.3%,0%,CCOC(=O)N1C/C(=C\c2ccccc2)C(=O)/C(=C/c2ccccc2)C1

# Source: PubChem BioAssay
